Assay outcomes deposited in PubChem BioAssay by several laboratories.
Arbovirus inh = antivirals against arbovirus infection. arbovirus infection cell-based antiviral screen. inhibition, % at 10 µM. actives 0.37% (n = 200,000). AID 1251;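 active = inhibition from about 30%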;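 note: bluetongue infection of BSR cells; cell survival read as ATP light after 72 h; 0% = infected wells without compound and 100% = uninfected wells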
RecA intein inh = inhibitors of M. tuberculosis RecA intein splicing; P9WHJ3; cell-free RecA intein splicing, fluorescence; inhibition, %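 (about 9 µM by stock and volumes)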; actives 0.75% (n = 290,000); in the data active = inhibition above about 30%; inconclusive = no clear call, values can overlap the other calls;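 note: 0% = vehicle wells and 100% = reference inhibitor control wells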
Target sequence (P9WHJ3 whole entry, looked up): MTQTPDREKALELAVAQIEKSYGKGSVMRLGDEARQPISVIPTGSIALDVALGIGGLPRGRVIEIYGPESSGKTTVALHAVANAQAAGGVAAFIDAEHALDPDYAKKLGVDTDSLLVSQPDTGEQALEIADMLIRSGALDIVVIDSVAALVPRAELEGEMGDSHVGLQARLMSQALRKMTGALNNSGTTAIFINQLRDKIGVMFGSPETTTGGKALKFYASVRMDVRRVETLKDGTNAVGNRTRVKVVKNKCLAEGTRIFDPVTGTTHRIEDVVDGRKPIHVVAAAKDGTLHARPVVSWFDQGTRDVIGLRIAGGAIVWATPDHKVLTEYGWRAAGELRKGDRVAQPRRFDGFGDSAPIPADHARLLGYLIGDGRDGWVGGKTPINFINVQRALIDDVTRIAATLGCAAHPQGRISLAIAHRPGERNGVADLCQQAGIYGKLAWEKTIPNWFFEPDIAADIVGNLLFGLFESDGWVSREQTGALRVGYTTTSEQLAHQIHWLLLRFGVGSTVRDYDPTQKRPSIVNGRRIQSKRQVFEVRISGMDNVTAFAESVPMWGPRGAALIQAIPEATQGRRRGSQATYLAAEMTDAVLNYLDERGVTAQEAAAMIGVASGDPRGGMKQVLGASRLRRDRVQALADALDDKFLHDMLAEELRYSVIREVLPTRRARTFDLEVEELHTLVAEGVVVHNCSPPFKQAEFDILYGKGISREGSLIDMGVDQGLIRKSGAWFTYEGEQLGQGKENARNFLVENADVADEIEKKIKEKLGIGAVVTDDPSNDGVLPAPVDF
Mtb H37Rv = M. tuberculosis H37Rv growth inhibitors, H37Rv strain (AID 1626). actives 0.95% (n = 220,000). inhibition, % at 10 µM; hits with a dose series show IC50 in µM. M. tuberculosis H37Rv growth inhibition; higher % means a stronger effect;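 active = confirmed in a dose series; inconclusive = inhibition above 80% but not taken into the dose series; inactive = below 80% or under 30% at every dose of the series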;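 note: bacteria incubated seven days before Alamar blue readout; 0% = bacteria only wells and 100% = bacteria with antibiotic wells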
Mtb betalactam = beta-lactam sensitization of Mtb H37Rv. actives 0.27% (n = 330,000). M. tuberculosis H37Rv growth with meropenem, percent inhibition; hits of this screen are not shown here. inhibition, % at 25 µM;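 active = about 74% or more and at least 40 points above the plate without the antibiotic, then above 30% in a dose series; inconclusive = first-round hits that could not be retested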;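 note: growth measured after seven days incubation then overnight dye step; 0% = bacteria only wells and 100% = bacteria with antibiotic; twin plates without the antibiotic show which effects depend on it; some results filed as inactive read as strong as hits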
YopH inh = YopH (Yersinia) phosphatase inhibition | inhibition, %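 (about 10 µM by stock and volumes)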 | AID 898 | actives 0.16% (n = 140,000) | fluorescence Ex485/Em525;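 active = inhibition of 50% or more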;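 note: controls were vehicle for no effect and minimum signal wells for full effect; inactives centre near -20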
Arbovirus inh repeat = also measured in Arbovirus inh; calls as there; inhibition, %; measured here: 10K subset replicate screen; many hits read low in the repeat;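 first of two repeat runs on a subset; 0% = infected and 100% = uninfected wells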
Numbers without * were called inactive; ? = inconclusive; nt = not tested or not shown. The list is partial. The share of hits here may be higher or lower than overall.

SMILES	Arbovirus inh	RecA intein inh	Mtb H37Rv	Mtb betalactam	YopH inh	others
CC(C)C[C@@H](CN=[N+]=[N-])N1CCN(CC(C)C)CCC1=O	nt	-2.9	nt	-6	nt
Cc1nnc(SCC(=O)NCc2ccccc2)n1-c1ccccc1	0	nt	-2%	5	-19
Cc1ccc(NC(=S)N(CCN(C)C)C(C)c2cccnc2)c(C)c1 (stereo not drawn)	-1	-2.2	6%	6	nt
CC(=O)c1c(C)[nH]c(C(=O)Nc2ccc(C)c(S(=O)(=O)N(C)C)c2)c1C	5	0.3	-18%	-5	nt
Fc1ccc(C2=Nc3cccc4cccc(c34)N2)cc1	-4	7.1	-9%	2	nt
O=C(COc1ccc(Cl)cc1)N1CCN(Cc2ccccc2)CC1	1	2.7	-2%	13	-52
Cn1c(=O)c2c(nc(CN3CCCCC3)n2CCc2ccccc2)n(C)c1=O	-8	6.5	2%	0	9
CC(O)[C@H]1CN=C(N)N1CC1CCCCC1 (stereo partly drawn)	nt	-0.2	-16%	5	nt
CCOC(=O)C1=c2s/c(=C\c3cccnc3)c(=O)n2C(N)=C(C(=O)OC)C1c1cccnc1 (stereo not drawn)	1	1.6	-1%	2	-3
O=C(O)c1cc(-c2ccc(Cl)cc2)n[nH]1	3	-1.0	-6%	-3	-35	Arbovirus inh repeat=2

Ordered by formula weight (lowest first): 4 of the compounds above
SMILES	Arbovirus inh	RecA intein inh	Mtb H37Rv	Mtb betalactam	YopH inh	others
O=C(COc1ccc(Cl)cc1)N1CCN(Cc2ccccc2)CC1	1	2.7	-2%	13	-52
Cc1ccc(NC(=S)N(CCN(C)C)C(C)c2cccnc2)c(C)c1 (stereo not drawn)	-1	-2.2	6%	6	nt
Cn1c(=O)c2c(nc(CN3CCCCC3)n2CCc2ccccc2)n(C)c1=O	-8	6.5	2%	0	9
CCOC(=O)C1=c2s/c(=C\c3cccnc3)c(=O)n2C(N)=C(C(=O)OC)C1c1cccnc1 (stereo not drawn)	1	1.6	-1%	2	-3

New compounds follow:
SMILES	Arbovirus inh	RecA intein inh	Mtb H37Rv	Mtb betalactam	YopH inh	others
O=C(CNC(=O)c1ccccc1)NCCO	19	-2.3	1%	-13	nt
CCN(CC)c1ccc(NC(=O)c2cncc(Br)c2)cc1	0	-5.5	5%	34	4
CC1(C)c2[nH]c3ccccc3c2C[C@@H]2C(=O)N(Cc3ccc(F)cc3)C(=O)N21	nt	1.8	8%	-7	nt
CCN(c1cccc(C)c1)S(=O)(=O)c1nnc(NC(=O)c2ccco2)s1	nt	2.0	nt	3	nt
O=[N+]([O-])c1cccc(-c2ccc(/C=N/n3c(-c4ccccc4)n[nH]c3=S)o2)c1	-11	-1.4	1%	-5	-17
CCOC(=O)c1c(-c2ccccc2)csc1NC(=O)/C(C#N)=C/c1ccc(OC)c(OC)c1	-8	-1.6	5%	10	-10
COc1ccc(-c2csc(NC(C)c3nc4cc(C(=O)NCCCO)ccc4n3Cc3ccc(C)cc3)n2)cc1 (stereo not drawn)	nt	16	-5%	21	nt
COc1ccc(-c2ccc3nnc(SCC(N)=O)n3n2)cc1	-1	-19	-1%	-6	nt
O=C(NCCc1ccccc1)c1ccc(Cl)c([N+](=O)[O-])c1	1	0.8	0%	9	-41
CC(=O)c1ccc(-n2cc(C#N)c(=O)[nH]c2=O)cc1	nt	-1.8	nt	-2	nt
Cc1ccc(-c2n[nH]c(=S)nc2-c2ccc(C)cc2)cc1	nt	1.8	nt	?	nt
CC1(C)C2CC=C(/C=N/n3cnnc3)C1C2 (stereo not drawn)	4	-1.1	1%	6	4
COc1cc(NC(=O)[C@@H](NC(=O)N2CCn3c2nc2ccccc23)C(C)C)cc(OC)c1	nt	3.7	nt	4	nt
CCOC(=O)N1CCC(=NNC(=O)c2cc3ccccc3cc2O)CC1	-9	-53	54%	5	-15
N#Cc1cc(-c2ccccc2)nc(Oc2ccccc2)n1	17	60*	15%	-3	-22
c1ccc2c3c([nH]c2c1)C1(CCNCC1)NCC3	nt	-4.5	nt	-8	nt
CC(C)CC(=O)N1CCN(Cc2ccc3c(c2)OCO3)CC1	-2	0.3	-9%	7	-30
O=S(=O)(c1ccc(-c2ccccc2)cc1)N1CCOCC1	6	-0.6	-2%	-4	-6
COc1ccc(CNC(=O)c2ccc(CN3CCOCC3)cc2)cc1	0	-0.8	0%	-2	-1	Arbovirus inh repeat=0
CCCCc1c(C)[nH]c(=S)[nH]c1=O	nt	-1.5	-11%	-1	nt
CCCn1c(SCC(=O)NC(C)C)nc2sc3c(c2c1=O)CCC3	nt	2.1	nt	-2	nt
CCC1CCC(N2CCN(c3ccc(F)cc3)CC2)CC1 (stereo not drawn)	nt	1.8	nt	-7	nt
Cc1ccccc1C(=O)N=c1ccn(-c2nc3ccccc3nc2NS(=O)(=O)c2ccccc2)cc1	nt	-0.2	nt	-3	nt
COc1ccc(-n2nc(C(=O)NCC(=O)Nc3cc(Cl)c(OC)cc3OC)c3ccccc3c2=O)cc1	nt	3.3	nt	-2	nt
CC(=O)N1CCc2cc(S(=O)(=O)NCCC(=O)NC3CCN(Cc4ccccc4)CC3)ccc21	1	nt	1%	-9	-10
CCOC(=O)c1sc(-c2ccc(OC)cc2)cc1N	4	1.9	-5%	30	-22
Cc1ccc(Cl)cc1N(CC(=O)NC1CCCC1)C(=O)c1csnn1	nt	2.1	nt	2	nt
Cc1ccc(S(=O)(=O)N2CCN(C(=O)CSc3nc4ccccc4c(=O)[nH]3)CC2)cc1	5	0.0	-8%	-5	-29
O=C(c1ccccc1)c1cccc(NC(=O)C2CC2)c1	0	6.9	-4%	39	-17
O=C(CSc1nnc2c(n1)[nH]c1ccc(F)cc12)NC1CC1	nt	0.1	nt	0	nt
Cc1ccc(N2CCN(C(=O)c3cn(CC4CCCCC4)nn3)C(C)C2)cc1 (stereo not drawn)	nt	6.5	nt	96	nt
CCOP(=O)(c1ccccc1)C(O)c1ccc([N+](=O)[O-])cc1 (stereo not drawn)	nt	-1.4	nt	-4	nt
CCNc1[nH]c(=O)n(C)c(=O)c1N=O	6	-1.4	-11%	-1	-22
Cc1ccc(-c2cc(=O)c3ccc(Cl)cc3[nH]2)cc1	2	1.1	-9%	-3	nt
COc1ccc(CCNC(=O)CCC(=O)NC2CCCCC2)cc1OC	nt	-0.4	nt	3	nt
CN(C)CCN1C(=O)C(=O)/C(=C(/O)c2ccccc2)C1c1ccccc1F (stereo not drawn)	9	-1.4	0%	3	-26
CC(c1ccccc1)(c1ccccc1)c1ccncc1	-10	9.7	9%	-10	nt
CCN(CC)C(=O)Cn1c(=O)n(C)c2ccccc21	4	1.4	0%	-15	-13
COc1ccc(CCNC(=O)C(=O)NCC2OCCCN2S(=O)(=O)c2cc(C)ccc2C)cc1 (stereo not drawn)	nt	7.2	nt	-5	nt
CC(=O)Nc1ccc(Nc2ccc3c4c(cc(=O)n3C)-c3ccccc3C(=O)c24)cc1	-4	2.5	2%	0	nt
Cc1ccc(Cl)cc1NC(=O)c1ccccc1OCC(=O)Nc1ccc(Cl)cc1	-17	-1.8	0%	5	-29
Cc1ccc([N+](=O)[O-])cc1S(=O)(=O)NCCc1cn2ccccc2n1	nt	-1.7	1%	-6	nt
CCOc1c(Cl)cc(CNC(C)(C)CC(C)(C)C)cc1OC	10	1.0	-3%	-12	-12
CCOc1ccc(CCNC(=O)CSc2nnnn2C)cc1OCC	2	-5.1	0%	-2	nt
CCCCNC(=O)c1ccc(CS(=O)(=O)Cc2ccccc2F)o1	8	0.5	0%	-2	nt
O=c1c2ccccc2nc(SCc2nnc(-c3ccccc3Br)o2)n1-c1ccccc1	4	1.0	7%	1	-13
Cc1ccc(OCc2cc(C(=O)NC3CCOC3)no2)cc1C (stereo not drawn)	nt	-1.6	nt	7	nt
CCN(CC#CCC1(O)c2ccccc2-c2ccccc21)CCO	8	-1.1	-6%	-3	-24
CCOc1ccc(-c2cc(CCCC(=O)NCCc3ccccc3)no2)cc1	5	0.9	5%	-10	-3
CCSc1nnc(NC(=O)[C@@H](NC(=O)c2ccccc2F)C(C)C)s1	11	-0.9	19%	-4	nt
The results go on.
SMILES	Arbovirus inh	RecA intein inh	Mtb H37Rv	Mtb betalactam	YopH inh	others
CCCC(CCC)C(=O)Nc1ccc2c(c1)N(C(=O)CCN1CCN(C)CC1)c1ccccc1CC2	-20	0.6	6%	6	nt
CCOC(=O)C1CCCN(Cc2ccccc2C)C1 (stereo not drawn)	2	-0.5	-1%	-6	-38
Oc1c(Cl)cc(Cl)cc1CN1CCN(Cc2ccccc2)CC1	24	6.3	2%	10	4
O=C(Cc1ccccc1)N[C@@H](Cc1ccccc1)c1nc2ccccc2[nH]1	7	-1.3	-3%	-1	21
Cc1ccc(CNC(=O)C2CCC(=O)N(CC3CCCCC3)C2)o1 (stereo not drawn)	nt	1.9	nt	0	nt
O=C(CN(C1CCCCC1)S(=O)(=O)c1ccccc1)NCc1cccnc1	3	-2.0	-6%	-25	5
Cc1cc(C)c(S(=O)(=O)N2CCCC(C(=O)NC3CCCC3)C2)c(C)c1 (stereo not drawn)	nt	2.9	nt	-2	nt
CC(C)(C)NC(=O)c1ccc(COc2ccc(Cl)cc2Cl)o1	nt	8.7	nt	12	nt
C=CCN(c1ccccc1)S(=O)(=O)c1cccc(C(=O)NCC2CCCO2)c1 (stereo not drawn)	nt	8.7	nt	-15	nt
Cc1ccc(C(=O)CSc2nnc(-c3ccncc3)n2C)cc1	10	0.0	4%	2	nt
Cc1cnc(C(=O)OCC(=O)NC2CCCCC2)cn1	2	-0.3	-7%	1	-37
CCCCOCP(=O)(CC)COCCCC	-2	0.3	-11%	4	8
CCOc1cc(C(=O)NC2=NCCS2)cc(OCC)c1OCC	3	0.5	-2%	-2	nt
COCCCNC(=O)C1CC(=O)N(Cc2ccc(OC)cc2)C1 (stereo not drawn)	7	4.8	-12%	-6	-22
CC(NC(=O)CCNC(=O)c1ccco1)c1ccccc1 (stereo not drawn)	nt	-0.6	nt	-9	nt
Cc1ccccc1CC(=O)Nc1cccnc1	nt	5.1	nt	-5	nt
O=C(c1cc(S(=O)(=O)N2CCOCC2)ccc1F)N(CCc1ccccc1)Cc1ccccc1	nt	8.7	nt	-15	nt
CC(=O)c1cccc(NC(=O)c2ccccc2N(C)S(=O)(=O)c2ccc(C)cc2)c1	nt	0.4	nt	-8	nt
Cc1ccc(NC(=S)N(CCN(C)C)C(C)c2ccco2)cc1Cl (stereo not drawn)	nt	4.0	0%	-6	nt
COc1ccccc1N1CCN(c2cnccn2)CC1	-2	nt	5%	6	nt
CCCCn1c(N)c(N(CC(C)C)C(=O)C2CC(=O)N(Cc3ccccc3)C2)c(=O)[nH]c1=O (stereo not drawn)	nt	2.1	nt	-5	nt
COc1cc(OC)cc(C(=O)Nc2ccc3nc4n(c(=O)c3c2)CCCCC4)c1	nt	0.8	nt	9	nt
O=Cc1ccc(OC(=O)c2cc(Cl)nc3ccccc23)cc1	4	23	5%	4	-8
Cn1c(C(=O)N2CCCc3ccccc32)cc2sccc21	7	9.7	8%	7	-54
CC(=O)NC(C)C(=O)OCC(=O)c1ccc(Cl)s1 (stereo not drawn)	-5	1.2	-8%	-1	-12
CCOC(=O)C1CCN(c2c(NCc3ccc(C(=O)N(C)Cc4ccccc4)cc3)c(=O)c2=O)CC1	14	-1.4	-8%	-6	nt
COc1cccc(-c2nc(CS(=O)(=O)CC(=O)N3CCCCC3)c(C)o2)c1	nt	2.0	nt	-1	nt
CCC(CO)NCC#Cc1ccccc1 (stereo not drawn)	1	-0.6	-1%	5	nt
C=CCc1ccc(OCCOCCOc2ccccc2[N+](=O)[O-])c(OC)c1	15	5.3	10%	-7	-20
CCOC(=O)N1CCC(NS(=O)(=O)c2ccc3c(c2)CCN3C(C)=O)CC1	14	1.6	-2%	-5	-9
CCN(C(=O)C1CCCCC1)c1nnc(-c2cccnc2)s1	6	-0.8	nt	-3	-12
COC(=O)c1ccc(CSc2nnc(-c3ccccc3)n2C)o1	20	-0.1	-4%	4	nt
CCOC(=O)C1CCN(C(=O)CSc2nc(N)cc(=O)[nH]2)CC1	nt	-2.0	nt	-4	nt
CN(c1ccc2nc3ccccc3c(=O)n2n1)C1CCCCC1	-10	-2.4	8%	3	nt
O=C(O)CCC(=O)N1CCN(c2nc(-c3ccccc3)c3cc(Br)ccc3n2)CC1	nt	-124	nt	4	nt
CN(C)CCCN(C(=O)c1ccc(S(=O)(=O)N(C)C)cc1)c1nc2ccc(F)cc2s1	4	1.0	2%	5	nt
OCC1(O)OC[C@@H](O)[C@H]1O (stereo partly drawn)	nt	-1.3	-6%	-1	nt
O=C(c1nc2ccccn2c1CN1CCCC(O)C1)N1CCN(C2CCCCC2)CC1 (stereo not drawn)	nt	-8.7	nt	-7	nt
COc1c(S(=O)(=O)NCCN2CCOCC2)ccc(Cl)c1Cl	16	0.1	-8%	-8	-10
CC1(C)CC(NCc2ccccc2)CCO1 (stereo not drawn)	17	-1.2	-1%	3	nt
